# Bioassay records deposited in PubChem by National Center for Advancing Translational Sciences (NCATS).
# Six1-Eya2 inh: qHTS Assay for Inhibitors of the Six1/Eya2 Interaction. Homeobox protein SIX1 (Homo sapiens) + Protein phosphatase EYA2 (Homo sapiens), …. AlphaScreen GST-Six1/His-Eya2 binding, biochemical; active compounds read low; control for the full effect not named in the record. activity change, % (test concentration not listed). 360,000 tested, 0.56% active; in the data active = activity change below about -65%; inconclusive = about -30% to -65%; inactive = above about -30%; note: % is set by controls: 0 for no effect and ±100 for the full control effect
#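 Six1/Eya2 binding was read as AlphaScreen signal after compounds were pinned into GST-Six1 plus His-tagged Eya2 (5X stock 250/500 nM) in pH 8.0 Tris/NaCl/TCEP buffer, beads added, then incubated 1 h, 37 C, dark.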
# PINK1 modulator: A Quantitative High throughput Screen to Identify Chemical Modulators of PINK1 Expression | AID 624263, 2012 | Potency, µM (highest dose often 76.6 µM), for the others: at the top dose activation (PINK1 increase), usual class: activators | 410,000 tested, 0.2% active | PINK1 immunofluorescence, high-content cytometry, 24 h; active = well fitted activation curve with a large enough effect; inconclusive = small, poorly fitted or top-dose-only effect; inactive = flat fitted curve, though single readings scatter; cell line not stated here;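 note: potency is the fitted concentration of half-maximal effect; % of control where 0% means no effect; nearly all actives have a fitted effect of over 65% in size; a mitochondrial uncoupler was the plate control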
#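 Compound titrations (5 concentrations, 24 h) on a stable cell line; DMSO and CCCP controls. Endpoint: fixed-cell PINK1 immunofluorescence with mitochondrial, cell and nuclear markers, scanned by microplate cytometer.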
# D2 ag: Beta-Arrestin HTS for Positive Allosteric Modulators of the Human D2 Dopamine Receptor: Agonists | D(2) dopamine receptor (Homo sapiens), P14416 | DiscoveRx PathHunter D2 beta-arrestin, luminescence, 90 min; 100% = 57 uM dopamine signal | activation, % (no concentration beside the values) | 360,000 tested, 0.084% active; in the data active = activation above about 40%; inconclusive = about 15% to 40%; inactive = below about 15%; note: compound concentration not given in the record; the text of the record calls up to 30% inactive
# Target sequence (P14416 whole entry, looked up): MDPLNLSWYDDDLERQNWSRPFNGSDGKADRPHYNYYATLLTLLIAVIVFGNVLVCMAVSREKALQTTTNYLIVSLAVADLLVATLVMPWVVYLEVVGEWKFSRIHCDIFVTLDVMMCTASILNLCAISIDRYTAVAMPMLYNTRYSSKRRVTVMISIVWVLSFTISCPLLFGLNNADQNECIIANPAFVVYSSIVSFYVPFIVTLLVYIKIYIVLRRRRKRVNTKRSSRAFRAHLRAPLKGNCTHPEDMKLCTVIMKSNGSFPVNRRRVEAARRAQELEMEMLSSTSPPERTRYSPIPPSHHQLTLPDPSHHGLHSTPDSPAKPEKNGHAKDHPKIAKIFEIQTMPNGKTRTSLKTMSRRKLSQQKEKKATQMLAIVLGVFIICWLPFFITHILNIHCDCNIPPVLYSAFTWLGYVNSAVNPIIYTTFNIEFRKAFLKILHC
#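 Agonist mode: compounds alone added to overnight-plated D2 PathHunter cells for 90 min at 37 C, with 57 uM final dopamine (EC100) defining full response. Beta-arrestin recruitment detected by chemiluminescent reagent, read after 1 h at ambient temperature.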
# D2 PAM: Beta-Arrestin HTS for Positive Allosteric Modulators of the Human D2 Dopamine Receptor: Potentiators | D(2) dopamine receptor (Homo sapiens), P14416 | DiscoveRx D2 beta-arrestin cells, luminescence, 90 min; 100% = 57 uM dopamine signal | potentiation, % (test concentration not listed) | 360,000 tested, 0.23% active | AID 624464, 2012; active = potentiation of 50% or more; inconclusive = 30% to 50%; inactive = 30% or less;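 note: compound concentration not given in the record; tested on top of an EC20 dose of dopamine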
#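 D2 cells co-treated with compound plus 50 nM dopamine (EC20) for 90 min at 37 deg C to detect potentiation. Beta-arrestin recruitment was read as enzyme-fragment luminescence after 1 h at ambient temperature. Full response was set by 57 uM dopamine.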
# TRPML1 inh: qHTS for Inhibitors of the Human Mucolipin Transient Receptor Potential 1 (TRPML1) | Mucolipin-1 (Homo sapiens), Q9GZU1 | TRPML1-inducible cells, Ca2+ dye fluorescence, FDSS; active compounds read low; inhibition of EC80 agonist-evoked calcium signal | activity change, negative = inhibition, % (test concentration not listed) | 390,000 tested, 0.02% active | AID 624415, 2012; in the data active means activity change below about -50%; inconclusive means about -30% to -50%; inactive means above about -30%;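 note: stimulus is agonist 54-4 at its EC80 concentration; % is set by controls: 0 for no effect and ±100 for the full control effect; compound concentration not given in the record; the text of the record puts the active cut at -80%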
# Target sequence (Q9GZU1 whole entry, looked up): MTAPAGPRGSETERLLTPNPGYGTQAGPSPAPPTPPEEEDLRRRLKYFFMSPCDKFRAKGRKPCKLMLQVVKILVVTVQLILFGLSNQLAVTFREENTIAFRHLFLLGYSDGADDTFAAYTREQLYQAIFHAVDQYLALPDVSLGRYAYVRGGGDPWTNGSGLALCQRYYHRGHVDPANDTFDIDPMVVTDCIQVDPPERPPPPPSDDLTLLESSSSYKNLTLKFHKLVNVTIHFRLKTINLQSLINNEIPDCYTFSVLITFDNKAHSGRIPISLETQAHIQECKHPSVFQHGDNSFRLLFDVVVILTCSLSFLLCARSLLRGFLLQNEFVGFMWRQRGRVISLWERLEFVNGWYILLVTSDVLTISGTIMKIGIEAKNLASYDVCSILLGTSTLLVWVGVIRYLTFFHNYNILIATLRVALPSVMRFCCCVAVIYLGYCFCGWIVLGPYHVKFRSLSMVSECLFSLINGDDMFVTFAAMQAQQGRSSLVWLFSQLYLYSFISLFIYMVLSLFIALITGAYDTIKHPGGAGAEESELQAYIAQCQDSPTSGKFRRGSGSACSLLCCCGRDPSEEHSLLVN
#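 Calcium fluorescence in TRPML1-DL cells induced overnight with Tet: a 110 s read after compound pin addition, then a 110 s antagonist read after challenge with 54-4 at 4 uM final (EC80).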
# TRPML1 ag: qHTS for Agonists of the Human Mucolipin Transient Receptor Potential 1 (TRPML1). Mucolipin-1 (Homo sapiens), Q9GZU1. TRPML1-expressing cells, Ca2+ dye fluorescence, FDSS; host cell line not named in the record; reference of the full effect not given here. activation, % (concentration not given with the values). 410,000 tested, 0.12% active. AID 624414, 2012; in the data active = activation above about 50%; inconclusive = about 30% to 50%; inactive = below about 30%; note: 0% is about no effect; the text of the record puts the active cut at 80%
#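 Agonist activity was taken from a 110 s kinetic Ca2+ dye read on the FDSS after pinning compounds onto TRPML1-DL cells. The cells were seeded at 1,500/well with Tet inducer, incubated about 16 h, then dye-loaded at room temperature.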
# Active calls of the source: *; ? = inconclusive; . = no result given; & = joins results of further samples; [ ] = another dose, or the depositor's remark.
mol	Six1-Eya2 inh	PINK1 modulator	D2 ag	D2 PAM	TRPML1 inh	TRPML1 ag
O=C1c2ccccc2C(=O)N1Cc1nc(-c2ccccn2)no1	-3	6.0%[38.3 µM]	0.0	16	-7	0.6
COc1cc2c(cc1OC)C(C)N(C(=S)Nc1ccccc1)CC2 (configuration not stated)	-5	-0.5%	1.6	0	-22	-0.9
Cn1ncc2c(Nc3ccc([N+](=O)[O-])cc3)nc(Cl)nc21	7	-0.3%	-3.2	?	9	0.5
O=C(Nc1ccc(Cl)cc1)N1CCC(c2nc(-c3cccs3)no2)CC1	-4	-3.6%[38.3 µM]	-4.0	-9	-11	1.1
COc1ccc(CCNC(=O)c2ccc(NC3=NC4CS(=O)(=O)CC4S3)cc2)cc1OC (configuration not stated)	1	-0.4%	0.7	1	-10	-0.3
O=C(Nc1sc2c(c1C(=O)NCCCO)CCCC2)c1ccccc1	0	2.8%	2.5	3	-11	0.6
Cc1cc(NC(=O)CCC(=O)N(Cc2cccnc2)C(C(=O)NC(C)(C)C)c2ccccc2Cl)no1 (configuration not stated)	4	2.8%	-1.6	-7	3	-0.9
O=C(c1cc([N+](=O)[O-])cc([N+](=O)[O-])c1)N(c1ccccn1)c1ccccn1	8	1.1%	5.2	?	-12	-0.4
O=C(CCn1cccc1)Nc1ccccc1F	-8	-0.5%	-4.7	-11	5	-0.8
Cc1ccc(/C=N/NC(=O)CSCc2ccc(Cl)cc2)cc1	0	2.2%	-3.1	-2	0	1.9
CC(C)(C)NC(=O)C(c1ccc(F)cc1)N(CC1CCCO1)C(=O)c1csnn1 (configuration not stated)	5	0.4%	2.3	-8	-21	0.8
O=C1CSC(c2ccccc2)N1c1ccccc1F (configuration not stated)	5	1.2%	0.6	-2	-7	2.0
CCn1nnnc1SCC(=O)Nc1ccc(OC)cc1	2	0.7%	3.4	-2	18	1.3
C=CCn1cc([N+](=O)[O-])nc1C	4	-0.2%	-1.7	1	-16	1.6
CCOc1cc(C(=O)N(C)c2ccccc2)cc(OCC)c1OCC	10	-2.5%	-0.6	-15	4	1.7
Cc1coc2c(O)cc3c(c12)OC1(N2CCCCC2)C(=O)NCCCC31 (configuration not stated)	-26	1.0%	?	71*	-23	1.1
CCCCn1c(N)c(N(CCOC)C(=O)CC(NC(=O)c2ccccc2Cl)c2ccccc2)c(=O)[nH]c1=O (configuration not stated)	6	1.0%	-3.6	-1	-11	0.4
O=C(c1ccc2snnc2c1)N1CCCCC1	1	-1.4%	0.8	-1	-2	-0.4
CCN(CC)S(=O)(=O)c1ccc(Cl)c(NC(=O)c2ccccc2C)c1	0	0.6%	0.1	14	18	0.3
COc1ccccc1C(=O)Nc1ccc2nc(N3CCC(C)CC3)cc(C)c2c1	.	2.9%	.	.	-8	1.5
Cc1ccc2[nH]cc(CCNC(=O)c3cccs3)c2c1	1	1.1%	-2.0	-7	7	-0.3
COc1ccc(OC2CCN(S(=O)(=O)c3ccc(C(C)=O)cc3)CC2)cc1	-4	-1.4%	-1.0	2	19	-0.2
CN(C)c1ccc(NC(=O)Cn2c(SCc3ccc(F)cc3)nc3ccncc32)cc1	.	2.9%	.	.	-5	0.1
N/C(=N\OC(=O)c1cc(Br)ccc1Cl)c1ccccn1	0	-1.5%	?	11	44	1.2
COc1cc(-c2nc(-c3ccc(NC(=O)c4ccc(Br)o4)cc3)no2)cc(OC)c1OC	-3	6.1%[38.3 µM]	2.2	28	-5	1.0
Nc1ccc(C(=O)OCc2nc3ccccc3s2)cc1	-8	1.7%	-2.3	-3	19	-0.6
COC(=O)NNC1=CC(=O)CC(C)(C)C1	4	1.7%	-6.2	-4	4	1.3
O=[N+]([O-])c1ccccc1/C=N/n1c(COc2ccccc2)n[nH]c1=S	-14	2.2%	2.4	-4	-4	1.3
Cc1noc(-c2ccc(-c3noc(-c4ccc(F)cc4)n3)cc2)n1	.	3.5%	.	.	61	-0.5
COC(=O)CNC(=O)/C=C/c1cc(Br)ccc1OC	-6	2.8%	0.9	-11	1	-0.3
CCc1ccc2c(c1)C(NC(C)=O)C(=O)N2CC (configuration not stated)	-1	2.2%	-5.3	-5	6	-0.8
COc1ccccc1C(=O)NC(=O)COC(=O)Cc1ccccc1[N+](=O)[O-]	-3	-1.3%	-5.6	-20	1	-0.4
COc1ccc(-c2nc3ccccc3s2)cc1NC(=O)c1cc2ccccc2o1	.	3.0%	.	.	-7	0.1
COc1cc(NC(=O)c2ccc(C(=O)c3ccccc3)cc2)cc(OC)c1OC	-2	8.6%	-1.9	14	11	0.7
CCS(=O)(=O)N1CCC(C(=O)Nc2cc(Cl)ccc2O)CC1	-14	0.0%	3.6	7	-7	0.5
Cc1oc(/N=C/c2cccc([N+](=O)[O-])c2)c(C#N)c1C	1	2.3%	5.4	29	.	.
CCN1CCN(C(=O)c2ccc3c(c2)S(=O)(=O)c2ccccc2C3=O)CC1	-3	-0.3%	-0.9	-6	-10	-0.1
COC(=O)c1cc2oc3ccccc3c2n1CC(=O)Nc1ccc(Cl)cc1F	.	3.2%	.	.	4	-1.1
CCCCC(CCC(=O)Nc1cccc([N+](=O)[O-])c1)C(=O)O (configuration not stated)	-1	-0.9%	-3.5	0	6	0.9
Cc1ccc(-n2c(O)c(C=Nc3ccccc3-c3n[nH]c(=S)[nH]c3=O)c3ccccc3c2=O)cc1C	-27	-0.6%	1.8	1	10	3.0
Cn1cc(C(=O)NCCc2ccc(Cl)cc2)c(=O)c2cc(S(=O)(=O)N3CCCCC3)ccc21	.	2.1%	.	.	11	0.1
Oc1ccc(Cl)cc1C1=Nc2ccccc2N=C(c2cccc(Br)c2)C1	.	2.7%	.	.	64	-0.2
CC1=C(C(=O)N2CCOCC2)C(c2ccccc2F)C2=C(CC(C)(C)CC2=O)N1 (configuration not stated)	3	-1.0%[38.3 µM]	0.8	-2	-5	-0.4
CCOC(=O)[C@H]1[C@H]2COc3ccc(OC)cc3[C@@H]2N2C(=O)CN(Cc3ccco3)C(=O)[C@@]12C	-1	0.4%	-2.7	-16	17	-0.3
COc1ccc(-c2nnc(SCC(=O)Nc3cc(C)on3)n2N)cc1OC	3	-0.3%	-1.3	9	-17	0.0
CCOC(=O)c1ccc(-c2ccc(/C=N/NC(=O)CN(c3ccccc3Cl)S(C)(=O)=O)o2)cc1	-8	-0.1%	-5.1	2	-11	-0.6
CC1=NN(C(N)=S)C(=O)C1N=Nc1ccc(C)c(Br)c1 (configuration not stated)	-9	1.2%	-5.4	-10	13	4.6
Cc1cc2nc(C(F)(F)F)[nH]c(=O)n2n1	2	-1.7%	-0.9	0	-7	-0.5
O=C(NCc1cccs1)c1cnn2cccnc12	0	.	-1.8	-6	6	-0.1
COc1ccc(C(=O)CCC(=O)NCCc2ccccc2F)cc1	-16	0.1%	-2.8	-2	21	-1.6

# Full records from above:
# `CC1=NN(C(N)=S)C(=O)C1N=Nc1ccc(C)c(Br)c1` (configuration not stated) is entered as Six1-Eya2 inh = -9; PINK1 modulator = 1.2%; D2 ag = -5.4; D2 PAM = -10; TRPML1 inh = 13; TRPML1 ag = 4.6
# `COc1ccc(C(=O)CCC(=O)NCCc2ccccc2F)cc1` is entered as Six1-Eya2 inh = -16; PINK1 modulator = 0.1%; D2 ag = -2.8; D2 PAM = -2; TRPML1 inh = 21; TRPML1 ag = -1.6
# `Cn1cc(C(=O)NCCc2ccc(Cl)cc2)c(=O)c2cc(S(=O)(=O)N3CCCCC3)ccc21` is entered as Six1-Eya2 inh = .; PINK1 modulator = 2.1%; D2 ag = .; D2 PAM = .; TRPML1 inh = 11; TRPML1 ag = 0.1

# Additional compounds follow:
mol	Six1-Eya2 inh	PINK1 modulator	D2 ag	D2 PAM	TRPML1 inh	TRPML1 ag
O=C1CC(c2cccs2)c2cc3c(cc2N1)OCCO3 (configuration not stated)	-1	.	1.0	0	0	0.1
COC(=O)c1c(NC(=O)/C=C/c2ccc(OC)cc2)sc2c1CCC2	.	-0.1%	.	.	11	-0.9
Cc1nccn1CC(=O)N/N=C/c1ccccc1O	-81*	-0.5%	-1.3	-9	-2	0.8
COc1ccc(OCCCn2c(C)nc3cc(C)c(C)cc32)cc1	.	0.1%	.	.	14	0.4
Cc1cc(C)cc(NC(=O)CSc2oc(-c3ccco3)nc2S(=O)(=O)c2ccccc2)c1	.	1.2%	.	.	-17	0.2
COc1ccc(-c2ccc(-c3noc(-c4cccs4)n3)c(OC)n2)cc1	1	6.3%	0.1	12	0	1.5
COc1ccc(CN2CN(C3CCCC3)CSC2=S)cc1	-3	4.0%	-2.8	-11	9	1.8
CN1CCN(c2ccc(C(F)(F)F)cc2NC(=O)Nc2ccccc2)CC1	-4	3.9%	3.7	-10	5	-0.2
Nc1nc2cc(Br)ccc2o1	0	-1.6%	3.7	-45	4	-0.1
CCOC(=O)c1c(/N=C/N(C)C)sc(C=O)c1-c1ccccc1	-5	2.9%	-1.5	-4	3	-0.4
CC(=O)Nc1cc(-c2ccc(Cl)cc2)[nH]n1	-2	1.6%	-4.8	-3	-1	-0.5
Cc1ccc(C(=O)Oc2cc(-c3ccccc3)no2)cc1	-1	0.8%	-0.6	-10	19	-0.6
Cc1cc(C)nc(SCC(=O)Nc2ccc(N3CCOCC3)c(Cl)c2)n1	11	2.8%	-0.4	4	10	1.4
COc1cc(/C=C(/C#N)C(=O)NCCCc2ccccc2)ccc1OCC(=O)O	-3	0.2%	-2.0	-11	5	-0.6
CCOC(=O)N1CCN(C(=O)COc2ccc(S(=O)(=O)Nc3ccc(OCC)cc3)cc2)CC1	0	-1.5%[38.3 µM]	1.2	13	-11	-0.1
O=C(Cn1c(=O)c(=O)n(Cc2ccccc2)c2ccc(Cl)cc21)Nc1ccc(F)cc1F	1	?	-1.2	-5	10	-0.5
CCc1nc2ccc(C(=O)N3CCN(c4cccc(OC)c4)CC3)cc2nc1CC	-20	1.6%&4.5%	7.1	0	-13&12	4.0&-0.2
CC1(C)OC(=O)C(=CNc2ccc(F)cc2)C(=O)O1	5	2.8%[38.3 µM]	-1.1	0	-9	-0.1
Oc1c(Br)cc(Br)c2cccnc12	-75*	11%	-6.1	-9	-1	2.8
